# KCNQ2 enhance: KCNQ2 (rat) channel potentiation; O88943; 0.54% of 310,000 active; B-score at 10 µM; CHO-K1 KCNQ2, FluxOR thallium flux fluorescence; active compounds read high;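 active = fluorescence ratio B-score at least 3 SD of library B-scores, with initial fluorescence B-score within 3 SD, cut at about 5.3 in these data; same plate scores as AID 2156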;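 note: B-score of peak minus minimum over baseline fluorescence ratio after K+ and Tl+ stimulus; positive B-score means potentiation of KCNQ2 with more thallium influx and brighter signal; only the inactives scoring about 0 or higher are listed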
# Target sequence (O88943 whole entry, looked up): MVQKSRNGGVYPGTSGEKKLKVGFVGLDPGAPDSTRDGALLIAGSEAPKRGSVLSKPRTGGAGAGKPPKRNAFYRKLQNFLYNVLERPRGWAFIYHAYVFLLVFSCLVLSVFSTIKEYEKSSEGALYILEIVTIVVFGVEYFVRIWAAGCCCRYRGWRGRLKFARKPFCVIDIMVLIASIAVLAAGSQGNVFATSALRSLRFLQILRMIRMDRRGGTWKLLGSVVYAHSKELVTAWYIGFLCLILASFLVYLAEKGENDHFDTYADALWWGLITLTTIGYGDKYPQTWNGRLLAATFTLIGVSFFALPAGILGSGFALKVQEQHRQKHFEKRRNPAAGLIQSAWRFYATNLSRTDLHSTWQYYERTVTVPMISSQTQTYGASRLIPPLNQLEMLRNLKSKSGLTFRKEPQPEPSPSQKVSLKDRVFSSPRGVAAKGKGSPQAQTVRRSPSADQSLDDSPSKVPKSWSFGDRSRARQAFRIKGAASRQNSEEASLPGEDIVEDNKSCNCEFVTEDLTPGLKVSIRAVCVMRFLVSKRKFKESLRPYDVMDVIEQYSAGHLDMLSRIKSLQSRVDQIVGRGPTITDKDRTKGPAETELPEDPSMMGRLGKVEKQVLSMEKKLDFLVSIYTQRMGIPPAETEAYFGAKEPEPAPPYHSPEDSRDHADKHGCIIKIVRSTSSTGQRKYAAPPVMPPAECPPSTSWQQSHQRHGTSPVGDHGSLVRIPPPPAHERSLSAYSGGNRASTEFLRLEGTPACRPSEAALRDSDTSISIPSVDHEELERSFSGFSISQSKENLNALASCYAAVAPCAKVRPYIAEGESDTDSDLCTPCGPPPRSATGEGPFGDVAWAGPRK
# KCNQ2 enhance baseline: recorded beside KCNQ2 enhance, whose call it bears; B-score; compound at 10 µM; measured here: initial fluorescence intensity artifact check;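 brightness before thallium and not channel activity; 0 = typical well and far values either way flag optical interference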
# An asterisk follows results filed as active. These rows are one share of the data; the hit share may differ from the screen's.
SMILES,KCNQ2 enhance,KCNQ2 enhance baseline
CCOC(=O)N1CCN(C(=O)Nc2ccc3nc(-c4ccccn4)c(-c4ccccn4)nc3c2)CC1,0.92,-0.04
COC(=O)c1ccccc1NC(=O)CSc1n[nH]c(CC(C)C)n1,0.18,-0.4
O=C(O)c1cccc2c1C(=O)N(C1CCCC1)C2,0.78,-0.01
Cc1ccc(N(C(=O)c2csnn2)C(C(=O)NC2CCCC2)c2cccnc2)cc1 (stereo unspecified),1.4,-2.3
Cc1ccsc1C1CC(=O)NC2=C1C(=O)CC(C)(C)C2 (stereo unspecified),0.16,-0.07
CCOC(=O)C1=C(C)NC2=C(C(=O)C(C(=O)OCC)C(c3cccc(OC)c3)C2)C1c1ccccn1 (stereo unspecified),1.8,1.1
CC1Cc2ccccc2N1C(=O)COC(=O)c1cccnc1Cl (stereo unspecified),0.55,-0.06
O=C(COc1ccc(F)cc1Cl)Nc1ccc(S(=O)(=O)Nc2nccs2)cc1,0.96,0
O=C(Cc1coc2ccc3ccccc3c12)Nc1nnc(C2CC2)s1,0.14,-0.85
C(=C\c1ccccc1)/CNCC1CCCO1 (stereo unspecified),0.92,-0.36
Cc1c(NC(=O)/C=C/c2ccc(S(=O)(=O)N3CCOCC3)cc2)c(=O)n(-c2ccccc2)n1C,0.51,0.12
CCOc1ccc2[nH]c3c(NCCN(CC)CC)ncnc3c2c1,0.56,-2.3
COc1ccc(C(=O)CCC(=O)N2CCN(c3ccccc3)CC2)cc1,1.6,0.56
O=C(NCCc1c[nH]c2ccccc12)/C(=C/c1cccnc1)NC(=O)c1ccccc1,0.33,-0.13
CCc1nn(CC(=O)O)c(=O)c2ccccc12,0.14,-0.8
OC1CCN(c2ncnc3c2nnn3Cc2c(F)cccc2Cl)CC1,1.4,-1.5
N#CC(C#N)=C1CCc2ccccc2N1,0.62,-0.01
O=S(=O)(c1ccc(N2CCOCC2)cc1)N1CCOCC1,0.58,2.4
COc1cccc2cc(C(=O)N3CCN(C45CC6CC(CC(C6)C4)C5)CC3)c(=O)oc12,0.66,-0.66
COc1ccccc1C(=O)NC(=O)Nc1nc(-c2ccccc2)cc(C(F)(F)F)n1,0.16,-0.19

# Fetched by compound from above (2):
SMILES,KCNQ2 enhance,KCNQ2 enhance baseline
O=C(O)c1cccc2c1C(=O)N(C1CCCC1)C2,0.78,-0.01
N#CC(C#N)=C1CCc2ccccc2N1,0.62,-0.01

# (further entries)
SMILES,KCNQ2 enhance,KCNQ2 enhance baseline
CCOc1ccc(S(=O)(=O)N2CCC(C(=O)NCc3ccco3)CC2)cc1C,1.8,0.79
O=C1CC(c2ccccc2)CC(O)=C1C=NCCCO (stereo unspecified),2.1,-0.28
COc1cc(C2Nc3ccc4ncccc4c3C3=C2C(=O)CCC3)ccc1O (stereo unspecified),0.5,0.06
Cc1cccc(NC(=O)CC2C(=O)NC3CCCCC3N2C(=O)c2ccccc2Cl)c1 (stereo unspecified),0.77,-1.6
Cc1nnsc1C(=O)NC(C)c1ccccc1 (stereo unspecified),0.54,0.87
CCc1nc2sc3c(c2c(=S)[nH]1)CC(C)(C)OC3,1.3,0.41
Cc1nc(SCC(=O)Nc2c(C)n(C)n(-c3ccccc3)c2=O)[nH]c(=O)c1C,1.2,-0.8
CC(=O)c1cc(F)c(N2CCCCCC2)cc1C,0.65,0.78
O=C(CSc1nncn1-c1ccccc1)NC1CCCC1,0.03,-1.1
CCOc1ccccc1N1CCN(S(=O)(=O)CC)CC1,0.71,0.02
NC(=O)N/N=C/c1coc2ccc3ccccc3c2c1=O,1.3,-0.77
O=[N+]([O-])c1cc(CN2CCCC2)ccc1Sc1ccc(Cl)cc1,1.4,-0.92
CS(=O)(=O)N1CCN(C(=O)c2cc(-c3cccnc3)nc3ccc(Cl)cc23)CC1,0.87,0.72
COc1ccc(-n2cnc3cc(NCc4ccccn4)ccc32)cc1,1.5,0.43
Cc1ccc2cc(C#N)c(N3CCCN(C(=O)C4CCCO4)CC3)nc2c1 (stereo unspecified),0.34,-1.3
O=C(Nc1ccccc1C(F)(F)F)c1ccc2nccnc2c1,0.84,0
COc1cccc(N2CC(C(=O)Nc3nnc(SCC(=O)NCc4ccco4)s3)CC2=O)c1 (stereo unspecified),0.84,-2.9
Cc1ccc(Cl)cc1NC(=O)CCNC(=O)N1CC(=O)Nc2ccccc21,0.12,0.73
Cc1ccc(/C=C/C(=O)O)cc1S(=O)(=O)NC1CCS(=O)(=O)C1 (stereo unspecified),0.06,1.8
Cc1csc(Nc2ccccc2)[n+]1-c1ccccc1,1.4,-0.46

# Six of the compounds above, with two lines to a compound.
# Values in the order – KCNQ2 enhance, KCNQ2 enhance baseline
Cc1ccc(Cl)cc1NC(=O)CCNC(=O)N1CC(=O)Nc2ccccc21
  0.12, 0.73
CC(=O)c1cc(F)c(N2CCCCCC2)cc1C
  0.65, 0.78
C(=C\c1ccccc1)/CNCC1CCCO1 (stereo unspecified)
  0.92, -0.36
Cc1nnsc1C(=O)NC(C)c1ccccc1 (stereo unspecified)
  0.54, 0.87
Cc1ccsc1C1CC(=O)NC2=C1C(=O)CC(C)(C)C2 (stereo unspecified)
  0.16, -0.07
O=S(=O)(c1ccc(N2CCOCC2)cc1)N1CCOCC1
  0.58, 2.4

# (list continues)
SMILES,KCNQ2 enhance,KCNQ2 enhance baseline
Fc1ccc(CNc2cnccn2)cc1,1,2.1
Cc1nc2ccccc2c(=O)n1NC(=O)/C=C/c1ccccc1,0.45,-0.81
COCCn1c(CN2CCN(C(c3ccccc3)c3ccccc3)CC2)nc2c1c(=O)n(C)c(=O)n2C,5.9*,0.93*
Cc1cc(NC(=O)CSc2nnnn2-c2ccc(F)cc2)no1,0.01,0.43
CCc1cc2c(=O)c(-c3nc(C)cs3)coc2cc1OC(C)C(=O)NCCO (stereo unspecified),1.8,-1.2
CC(=O)c1ccc(NC(=O)CSc2nc(=O)cc(N)n2-c2ccccc2)cc1,0.24,0.02
CS(=O)(=O)N(CC(=O)Nc1ccccc1C(=O)N1CCCC1)c1ccccc1Br,1.3,2.4
CC1=NN(C(=O)c2ccccc2Br)C(O)(c2ccc(Cl)cc2)C1 (stereo unspecified),1.6,1.1
CCCN1CNc2c(c(=O)[nH]c(=S)n2-c2ccc(Cl)cc2)C1,0.32,0.66
CN(C(=O)COC(=O)c1ccccc1SCC(=O)NC1CCCCCCC1)C1CCS(=O)(=O)C1 (stereo unspecified),1,0.15
CC(=O)N1CCCc2cc(S(=O)(=O)NC(C(=O)NC(C)c3ccccc3)C(C)C)ccc21 (stereo unspecified),0.44,0.38
CC1(C)[C@H]2CC[C@]1(C)[C@@H](OC(=O)C[N+]1(C)CCOCC1)C2,0.57,2.2
O=C(Oc1ccc(-c2nc(-c3ccccn3)no2)cc1)c1ccccc1,0.19,0.83
Nc1nc(-c2cccs2)c(NC(=O)c2ccccc2)s1,1.2,-0.34
c1ccc2[nH]c(Cn3nnc4ccccc43)nc2c1,0.08,0.14
CCCN1CCC(=O)N(CCSc2ccccc2)CC1,1.6,0.39
O=C(CCc1ccccc1)NNC(=O)COc1ccccc1,1.1,-0.34
CC(=O)NCc1ccc(-c2nc3ccccc3s2)cc1,0.16,-0.11
CCOc1ccc(NC(=S)NCCCN2CCOCC2)cc1,0.79,1.1
COc1ccc(CCN2CC(C(=O)N3CCC(OC)CC3)CCC2=O)cc1 (stereo unspecified),1.8,0.04

# Gathered by group, the entries above with a thiophene ring, fused or not.
SMILES,KCNQ2 enhance,KCNQ2 enhance baseline
Cc1ccsc1C1CC(=O)NC2=C1C(=O)CC(C)(C)C2 (stereo unspecified),0.16,-0.07
CCc1nc2sc3c(c2c(=S)[nH]1)CC(C)(C)OC3,1.3,0.41
Nc1nc(-c2cccs2)c(NC(=O)c2ccccc2)s1,1.2,-0.34

# Carrying on:
SMILES,KCNQ2 enhance,KCNQ2 enhance baseline
Cc1ccc(-c2csc(N3CCN(c4cc5c(cc4Cl)nc(C(C)N)n5CCCO)CC3)n2)cc1 (stereo unspecified),0.34,1.2
CCc1ccc(CNC(=O)c2ccc3c(c2)NC(=O)C(N2CCOCC2)S3)cc1 (stereo unspecified),0.85,1.6
COCCn1c(CNc2ccc(F)cc2)nnc1SCC(=O)Nc1ccc(OC)cc1OC,0.24,-0.72
CC(C)C[C@@H](CO)NC(=O)CC[C@H](NC(=O)OC(C)(C)C)C(=O)N(Cc1ccccc1)Cc1ccccc1,1.7,-0.25
NC(=O)c1cccnc1Nc1ccccc1Cl,0.04,-1.3
O=C(NCc1ccco1)c1cnn2c(C(F)(F)F)cc(-c3ccccc3)nc12,1.7,-0.47
COc1ccc(NC(=S)NNC(=O)COc2ccc(Cl)cc2Cl)cc1,0.34,-0.99
CN(CC(=O)Nc1ccc(N2CCOCC2)cc1)C(=O)COc1ccccc1F,0.68,-0.02
C=CCNC(=O)NC(=O)COn1nnc2ccc(S(=O)(=O)N(C)C)cc21,0.19,-0.22
Cc1cccc(NC(=O)CCc2ccccc2)c1,2.3,0.22
O=C(NCCNC(=O)c1ccc(Br)o1)c1ccc(Br)o1,0.48,0.11
CCc1c(C(=O)NNC(=S)NCCc2ccccc2)csc1C,1.1,-0.48
CC1(C)CC(=O)c2sc(NC(=O)Cc3cccs3)nc2C1,0.09,0.22
COc1cc(C2NC(=O)NC(O)(C(F)(F)F)C2C(=O)c2cccs2)ccc1O (stereo unspecified),0.72,-0.46
CCc1nc(Nc2cccc(F)c2)c2oc3ccccc3c2n1,0.93,0.26
CC(C)(C)C(=O)O/N=C(\N)c1c(Cl)cccc1Cl,0.89,0.04
COC(=O)c1ccc(C(=O)Nc2ccc(C(C)C)cc2N)cc1,1.7,-0.31
O=C1C2CC=C(Cl)CC2C(=O)N1CCC[n+]1ccccc1 (stereo unspecified),0.4,1.2
CC(C)c1ccc(N=C(N)N=C(N)N)cc1,0.04,-0.01
COc1ccc(C(=O)Nc2ccccc2C(=O)O)cc1NC(=O)C(c1ccccc1)c1ccccc1,2.9,-1.3

# Entries of single compounds as entered above. Order of values: KCNQ2 enhance	KCNQ2 enhance baseline
# `Fc1ccc(CNc2cnccn2)cc1` across the screens: 1	2.1
# `CCOc1ccc(S(=O)(=O)N2CCC(C(=O)NCc3ccco3)CC2)cc1C` across the screens: 1.8	0.79

# Next section:
SMILES,KCNQ2 enhance,KCNQ2 enhance baseline
O=C(NCCN1CCOCC1)c1cc(-c2ccc(F)cc2)on1,2.7,-1.8
CSc1ccc(NC(=O)/C=C/C(=O)O)cc1,0.8,-0.45
O=C(O)COc1ccc(Br)cc1CP(=O)(c1ccccc1)c1ccccc1,0.66,-0.94
COc1ccc(C(=O)NC(=S)Nc2ccc(N3CCOCC3)cc2)cc1Cl,0.01,-0.65
CC(=O)N(Cc1cccnc1)c1cccc(-c2nc3ccccc3s2)c1,0.97,0.67
CC(C)C1Oc2ccccc2N(CC(=O)NC2CCCCC2)C1=O (stereo unspecified),0.41,0.2
CCN(CC)CCn1c(NCc2ccc(OC)cc2)nc2ccccc21,0.04,-0.68
COCCNC(=S)N1CCCC(CO)C1 (stereo unspecified),0.79,0.2
CCCn1c(O)c(N=NC(=O)CNC(=O)c2cccnc2)c2ccccc21,1.3,-1.4
O=C(O)c1ccc(-c2nc(-c3ccccc3)c(-c3cccs3)[nH]2)cc1,0.02,-1.2
Cn1c(=NC(=O)C2=NNC(=O)CC2)sc2ccccc21,0.61,-0.09
Cc1ccccc1CSCCNC(=O)Nc1ccccc1,0.81,-0.52
CC(=O)c1ccc(N2CCN(C(=O)c3ccc(Cl)c(NC4=NC5CS(=O)(=O)CC5S4)c3)CC2)cc1 (stereo unspecified),1.1,0.33
CCOC(=O)C1CCN(C(=O)C2(NC(=O)Nc3ccccc3C)CCCCC2)CC1,0.27,0.09
CCOC(=O)N1CCC(NC(=O)c2cnn3c(C(F)(F)F)cc(-c4cccc(OC)c4)nc23)CC1,0.47,-1.5
CCOc1ccccc1Nc1nnc(SC(C)C(=O)Nc2nc(-c3ccccc3)cs2)s1 (stereo unspecified),0.91,0.03
CCOc1ccc(NC(=O)C(NC(=O)C2CCC(C)CC2)C(C)C)cc1 (stereo unspecified),1.9,-0.01
CCOc1ccc(C(C)=O)cc1COC(=O)CNC(=O)c1cccs1,0.99,0.47
COCCn1c(C)cc(C(=O)COC(=O)c2ccc([N+](=O)[O-])o2)c1C,1,-0.82
O=C(CCn1c(=S)[nH]c2ccccc2c1=O)NCCc1ccccc1,1.2,-1.3
Cn1c2ccccc2c2cc(/C=C(\NC(=O)c3ccccc3)C(=O)O)ccc21,1.1,-2
c1coc(CNc2nc(-c3cccs3)cs2)c1,0.9,-0.78
O=C(N/N=C/c1cccs1)c1ccc(-n2cccc2)cc1,0.72,0.18
CCc1noc(C)c1C(=O)Nc1nc(-c2cccs2)cs1,0.61,0.33
NS(=O)(=O)c1cccc(NC(=S)NC(=O)c2cccc([N+](=O)[O-])c2)c1,1.2,-1.4
CN(CC(=O)NCc1cccs1)CC(=O)Nc1ccc(F)c(F)c1F,1.6,-1.4
O=C(c1cc(COc2c(F)cccc2F)on1)N1CCN(C2CCCCC2)C(=O)C1,1.1,-0.01
Cc1ccc(S(=O)(=O)N(C)CCCC(=O)Nc2ccncc2)cc1,1.1,1.1
O=C(Nc1ccc(NC(=O)c2cccnc2Cl)cc1)c1cccc(Cl)c1,1.2,0.39
CCOCCCNCc1cc(Br)ccc1OCc1ccccc1,0.99,-1.3
O=C(Cn1cc(C(=O)C2CCCCC2)c2ccccc21)NCC1CCCO1 (stereo unspecified),0.26,0.31
COC(=O)C1=C(C)NC(=O)CC1c1ccc(C(=O)OC)cc1 (stereo unspecified),0.4,2.6
COc1cc(OC)c(OC)cc1/C=N/NC(=O)c1ccc(=O)n(C)c1,0.77,-0.07
CC(C)Cn1c(N)c(C(=O)COC(=O)c2ccc(F)cc2)c(=O)n(C)c1=O,0.09,-0.6
O=C(NCc1ccncc1)C(=O)NCc1ccco1,2.1,-0.03
CCOC(=O)CC(=O)CSc1ncnc2c1nnn2-c1ccc(F)cc1,0.59,-1.4
CCCCCCCC[n+]1cccc(C(=O)N2c3c(nc(N)[nH]c3=O)NC(C)C2C)c1 (stereo unspecified),0.04,0.28

# Screening results from PubChem.
